VDR inhibitor = inhibitors of human vitamin D receptor. Potency, µM, without a hit: max response, negative = inhibition, hits mostly inhibitors. VDR-SRC2-3 peptide fluorescence polarization, 2 h. P11473. 0.93% of 400,000 active; active means well fitted inhibition curve with a large enough effect; inconclusive means small, poorly fitted or top-dose-only effect, or another doubt; inactive means no such curve, though single readings can be large or run the other way; further: series mostly up to about 120 µM
Target sequence (P11473 whole entry, looked up): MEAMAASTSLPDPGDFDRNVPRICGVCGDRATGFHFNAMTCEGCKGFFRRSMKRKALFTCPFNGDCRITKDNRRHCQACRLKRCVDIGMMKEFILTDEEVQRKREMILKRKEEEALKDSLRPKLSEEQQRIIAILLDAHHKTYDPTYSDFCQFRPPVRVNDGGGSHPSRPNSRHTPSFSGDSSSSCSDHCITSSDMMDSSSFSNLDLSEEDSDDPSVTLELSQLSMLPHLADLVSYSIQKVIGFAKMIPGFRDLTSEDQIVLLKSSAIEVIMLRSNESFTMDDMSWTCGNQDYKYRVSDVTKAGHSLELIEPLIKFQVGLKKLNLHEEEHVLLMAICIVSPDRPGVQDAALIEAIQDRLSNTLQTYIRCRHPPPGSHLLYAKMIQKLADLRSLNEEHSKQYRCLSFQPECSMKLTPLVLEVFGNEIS
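The screen uses fluorescence polarization to detect compounds that interfere with recruitment of the SRC2-3 coactivator peptide to VDR; plates are read after 2 h at room temperature.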
* = called active by the depositor; ? = inconclusive; & = joins results of further samples; [ ] = remark or other dose. On the % scale 0 is the no-effect control and ±100 the full control effect; potency means the concentration at half of the fitted maximal effect. A portion of the library, so the mix of outcomes need not match the whole.

| Molecule | VDR inhibitor |
| --- | --- |
| Cc1cc(C(=O)NC2CCCc3c2cnn3-c2cc(F)cc(F)c2)nn1C (stereo not drawn) | 2% |
| Cc1cc(Oc2ccc(Br)cc2)nc(SCC(=O)c2ccccc2)n1 | -6% |
| Cc1cccc(C)c1NC(=O)C(=O)NCC(c1cccnc1)N1CCc2ccccc21 (stereo not drawn) | 8% |
| O=C(c1cc(Br)ccc1Cl)N1CCCC1 | 36%[activator] |
| CC(=O)Nc1ccc(S(=O)(=O)N2CCN=C2SCc2cccnc2)cc1 | -10% |
| COc1ccc(S(=O)(=O)N2CCN(C)CC2)c2ccccc12 | -1% |
| CCCCn1c(SCC#N)nc2ccccc2c1=O | -24% |
| Cc1ccc(C(=O)N/C(=C\c2sccc2C)C(=O)NCc2ccncc2)cc1 | 1% |
| CC(=O)c1cccc(NC(=O)CN(C)Cc2ccc(OC(F)F)cc2)c1 | 2% |
| COc1ccc(N2CCN(Cc3nc(N)nc(Nc4ccc(C)c(Cl)c4)n3)CC2)cc1 | 13% |
| Cc1ccccc1C(=O)Nc1ccnn1C1CCN(Cc2ccccn2)CC1 | -15% |
| CCOC(=O)c1sc(NC(=O)c2ccc(S(=O)(=O)N3CCCCC3)cc2)nc1-c1ccccc1 | -3% |
| Cc1cc(C2N=C(N)Nc3nc4ccccc4n32)c(C)n1-c1ccccc1Cl (stereo not drawn) | -5% |
| CCOC(=O)C(C(=O)OCC)C(Nc1ccc(Br)cc1)c1ccccc1 (stereo not drawn) | 79µM* |
| Cc1ccc(OCC(=O)NCCNC(=O)c2cccnc2)cc1C | -9% |

In another format: results already given
VDR inhibitor | molecule
-6% | Cc1cc(Oc2ccc(Br)cc2)nc(SCC(=O)c2ccccc2)n1
-1% | COc1ccc(S(=O)(=O)N2CCN(C)CC2)c2ccccc12
-15% | Cc1ccccc1C(=O)Nc1ccnn1C1CCN(Cc2ccccn2)CC1
79µM* | CCOC(=O)C(C(=O)OCC)C(Nc1ccc(Br)cc1)c1ccccc1 (stereo not drawn)
36%[activator] | O=C(c1cc(Br)ccc1Cl)N1CCCC1

(list continues)
| Molecule | VDR inhibitor |
| --- | --- |
| Cc1ccsc1/C=N/NC(=O)c1ccncc1 | -3% |
| COC(=O)NNC(=O)c1ccccc1OC | -3% |
| O=C(c1cccnc1)N1c2ccccc2Sc2ccccc21 | 12% |
| CC(C)(C)OC(=O)C[C@H]1C/C=C\C[C@H](CC(=O)N[C@H](CO)Cc2ccccc2)C(=O)N2CCC[C@@H]2COC1=O | -6% |
| Cc1cc(C)n(-c2nc3ccccc3c3nc(C)nn23)n1 | -19% |
| O=C(CNCc1ccco1)Nc1ccccc1-n1cccc1 | -12% |
| COc1ccc(C(=O)Nc2ccc3nc(SCC(=O)N4CCCC4)sc3c2)cc1 | 0% |
| CCOC(=O)C1CCCN(C(=O)C2CCN(S(=O)(=O)N3CCC4(CC3)OCCO4)CC2)C1 (stereo not drawn) | -2% |
| CC(C)Cc1ccc(CN2CCCC(NC(=O)CCN3CCOCC3)C2)cc1 (stereo not drawn) | -17% |
| CCCn1nnc2sc3c(c2c1=O)CCC(C)C3 (stereo not drawn) | -12% |
| COC(=O)c1ccc(NC(=O)C(=O)N2CCCC2)cc1 | -7% |
| O=C(Cc1cccc2ccccc12)N1CCCc2ccccc21 | 9% |
| Cc1ccc(N2C(=O)N3[C@H](c4ccc(Cl)cc4)[C@@H]4C(=O)N(C5CCCCC5)C(=O)[C@@H]4[C@]3(Cc3ccccc3)C2=O)cc1 | -5% |
| COc1ccc(C(=O)SC2=NCCS2)cc1 | 1% |
| Cc1ccc2c(c1)[C@H]1[C@H](CO2)[C@H](c2ccccc2)[C@]2(C)C(=O)Nc3ccccc3C(=O)N12 | -14% |
| CN(C)c1ccc2c(c1)OC(N)=C(C#N)C2c1cccc(F)c1 (stereo not drawn) | 3% |
| O=C(CN1CCC(NC(=O)c2ccccc2Cl)CC1)NCc1ccco1 | -4% |
| Cc1ccc(S(=O)(=O)Nc2nc3ccccc3s2)cc1 | 3% |
| CCCCCNC(=O)c1ccc2c(=O)n(CCOC)c(=O)[nH]c2c1 | -5% |
| Cc1ccsc1C(=O)NCCc1nnc2ccccn12 | 0% |
| CC(=O)c1cccc(NC(=O)NC2CC(=O)N(c3ccc4c(c3)OCCO4)C2)c1 (stereo not drawn) | -12% |
| COc1c(Cl)ccc(Cl)c1C(=O)O | -1% |
| CCC(NC(=O)CSc1nnnn1C1CC1)c1ccc(Br)cc1 (stereo not drawn) | 4% |
| Cc1nn2c3cc(N4CCOCC4)ccc3nc2c2ccccc12 | -17% |
| Cc1ccc(NC(=O)N2CCC(NC(=O)c3cccc(C)c3)CC2)cc1 | -2% |
| COc1ccc(N2CCN(C(=O)CSc3nnc4nc(C)cc(C)n34)CC2)cc1 | 2% |
| COc1ccc(-c2onc3ccc(Cl)cc23)cc1 | 9% |
| CC1CCCN(CC(=O)Nc2ccc(S(=O)(=O)N3CCCCCC3)cc2)C1 (stereo not drawn) | 20% |
| COc1cc(-n2c(C)nc3cc(C(=O)O)ccc32)cc(OC)c1OC | -13% |
| CN(C)c1cccc(C(=O)Nc2nnc(Cc3ccccc3)s2)c1 | 8% |
| CCC(C)[C@H](NC(=O)Nc1ccc(S(N)(=O)=O)cc1)C(=O)OC (stereo partly drawn) | 10% |
| COc1c2c(nc3occc13)C(CCC(C)(C)O)(OC)C(O)CC2 (stereo not drawn) | 24% |
| N#C/C(=N\O)c1nc2ccccc2s1 | -7% |
| CC(NC(=O)COC(=O)COc1cccc2c1OC(C)(C)C2)c1ccccc1 (stereo not drawn) | 7% |
| O=C(Nc1ccc2oc(-c3ccccc3F)nc2c1)c1cncc(Br)c1 | -1% |
| CCOC(=O)N1CCc2c(sc3c2c(=O)n(CCc2ccccc2)c(=O)n3Cc2cc(C)ccc2C)C1 | -10% |
| COc1ccc(OC)c(NC(=O)CSC2=NN3CCCC(=O)N=C3S2)c1 | -1% |
| Cc1cc(C)n(-c2nc3ccccc3nc2N2CCCCCC2)n1 | 17% |
| CC1CC(C)CN(CCOc2cccc3ccccc23)C1 (stereo not drawn) | 0% |
| O=C(c1cc(=O)[nH]c2ccccc12)N1CC=C(c2ccccc2)CC1 | -18% |
| CC(=O)c1ccc(NC(=O)C(C)OC(=O)/C=C/c2ccco2)cc1 (stereo not drawn) | -3% |
| CC(CC(=O)N1CCN(C(=O)c2ccccc2)CC1)c1ccccc1 (stereo not drawn) | -3% |
| N#C/C(=C\c1ccncc1)C(N)=O | 8% |
| CC(=O)Nc1ccc(NC(=O)C(C)OC(=O)c2ccc(C)s2)cc1 (stereo not drawn) | 18% |
| COc1ccc(NC(=O)CSc2nc3[nH]ncc3c(=O)[nH]2)cc1OC | 20% |
| Cc1ccc(/C=C(\NC(=O)c2ccccc2)C(=O)NC(Cc2ccccc2)C(=O)O)cc1 (stereo not drawn) | -1% |
| CCN1CCCC1CNCC(=O)Nc1ccc(OC(F)(F)F)cc1 (stereo not drawn) | 0% |
| c1ccc(Cn2ncc3c(N4CCCCC4)ncnc32)cc1 | 12% |
| CCC(C)(C)C1CCC(=NNS(=O)(=O)c2ccc(C)c([N+](=O)[O-])c2)CC1 (stereo not drawn) | -18% |
| CC(C)(CO)NC(=O)C(c1ccccc1)c1ccccc1 | -6% |
| COc1ccc(CC(=O)OCn2nnc3ccccc3c2=O)cc1OC | 1% |
| CC1CCN(c2nc3ccc(C(=O)NCCCN4CCCCC4C)cc3s2)CC1 (stereo not drawn) | -9% |
| COc1cc(C(=O)Nc2cccc(C)n2)ccc1OCC(=O)N1CCOCC1 | -13% |
| CCC(C)NC(=O)Cn1c(=O)n(CCCCCC(=O)Nc2ccccc2)c(=O)c2sccc21 (stereo not drawn) | -7%&-16% |
| CNNC(=S)NC1CC2CC1C1C=CCC21 (stereo not drawn) | -20% |
| COc1ccc(NC(=O)CN2CCN(S(=O)(=O)c3ccc(C(C)C)cc3)CC2)cc1OC | 13% |
| O=C(c1cc(-c2ccc(F)cc2)on1)N1CCCCCC1 | -3% |
| COc1ccccc1C1C(C(=O)c2sc(C)nc2C)=C(O)C(=O)N1CCN1CCOCC1 (stereo not drawn) | -4% |
| CSc1cccc(NC(=S)N2CCC(N(C)C3CCCCC3)CC2)c1 | -10% |
| CC1CN(C(=S)NC2CCCC2)CC(C)O1 (stereo not drawn) | -7% |

Continued:
| Molecule | VDR inhibitor |
| --- | --- |
| CCC1=C(c2ccc(C)cc2)S(=O)(=O)N=C1N1CCC(C(=O)N2CCCCC2)CC1 | 4% |
| Cc1ccc(NC(=S)N(CCCN2CCOCC2)Cc2ccco2)cc1 | 10% |
| C[C@@H]1NC(=O)c2cc([N+](=O)[O-])cc(F)c2NCCC[C@@H](C(N)=O)NC(=O)[C@H](CC(N)=O)NC1=O | -6% |
| CC(=O)c1c(C)[nH]c(C(=O)Nc2cccc(C)n2)c1C | -10% |
| COC(=O)c1ccc(NC(=O)CSc2nnc(COc3c(C)cccc3C)o2)cc1 | 2% |
| CC(=O)c1ccc(N2CCN(C(=O)CCS(=O)(=O)c3ccc4c(c3)NC(=O)CS4)CC2)cc1 | 4% |
| Cc1cccc(NC(=S)N(CCCN(C)C)Cc2cc3cc4c(cc3[nH]c2=O)OCO4)c1 | -16% |
| COc1cccc(CNC(=O)c2ccc3c(c2)sc2nc(-c4ccccc4)cn23)c1OC | 17% |
| O=C(CSc1nc2ccccc2[nH]1)NC1CCS(=O)(=O)C1 (stereo not drawn) | 7% |
| CCN(CC)c1ccc(C(=O)NNC(=O)C2CSC3(C)CCC(=O)N23)cc1 (stereo not drawn) | 17% |
| Cc1nc2ccc(C(=O)N/N=C/c3ccccc3O)cc2[nH]1 | -6% |
| COc1ccc(S(=O)(=O)N2CCCCC2)cc1NCC(=O)Nc1ccc(C)cc1 | 1% |
| CC(=O)c1cccc(-n2nnnc2SCC(=O)Nc2cccc(NC(=O)c3ccco3)c2)c1 | 0% |
| O=C(COC(=O)CNC(=O)C1CCCCC1)Nc1ccccc1OC(F)F | -2% |
| CCN(CC)C(=O)[C@H]1CC(CC(=O)NCc2ccco2)C(=O)N2CCc3c([nH]c4ccccc34)[C@]12C (stereo partly drawn) | -20% |
| C=CCC[C@@H](Cc1ccc(F)cc1)C(=O)OC[C@H](Cc1c[nH]c2ccccc12)NC(=O)[C@H](CC=C)CC(=O)N(CCO)Cc1ccccc1 | -6% |
| COc1ccc(C(=O)C2CCCN(C(=O)c3cccc(N4CCCC4=O)c3)C2)cc1OC (stereo not drawn) | 3% |
| Cc1ccc(CNC(=O)CCc2c(C)nn(-c3ccc(N4CCCC4)nn3)c2C)cc1 | 6% |
| CS(=O)(=O)c1ccc2nc(NC(=O)CN3C(=O)C4CC=CCC4C3=O)sc2c1 (stereo not drawn) | 6% |
| O=C1C[C@H](c2ccc(O)cc2)Oc2cc(O[C@@H]3O[C@H](CO)[C@@H](O)[C@H](O)[C@H]3O)cc(O[C@@H]3O[C@H](CO)[C@@H](O)[C@H](O)[C@H]3O)c21 | -3% |
| Cc1ccccc1N(C(=O)Cn1nnc(-c2cccs2)n1)C(C(=O)NCCC(C)C)c1ccco1 (stereo not drawn) | 5% |
| O=C(Nc1ccc2c(c1)OCO2)C(c1ccccc1)N1CCN(C(=O)c2ccco2)CC1 (stereo not drawn) | 4% |
| CC(C)(NS(=O)(=O)OCC(Cl)(Cl)Cl)c1ccccc1 | 15% |
| CCN(C(=O)CN1C=NS(=O)(=O)c2ccccc21)c1ccccc1 | -24% |
| CCCCc1cc(=O)oc2cc(C)cc(O)c12 | -11% |
| COc1cccc(C(=O)Nc2ccncc2)c1OC | -14% |
| Cc1ncc(CSCC(=O)Nc2cc(C(F)(F)F)ccc2Cl)c(CO)c1O | 2% |
| CCOC(=O)[C@@H]1[C@H]2COc3ccc(Br)cc3[C@H]2N2C(=O)N(c3cccc(F)c3)C(=O)[C@]12C | 1% |
| CC(NC(=O)c1cc(COc2ccccc2)on1)c1nccs1 (stereo not drawn) | 9% |
| Clc1ccc(CSc2nccn2Cc2ccccc2)cc1 | 2% |
| COc1ccc(NC(=O)CSCC(=O)NCc2ccco2)cc1 | -13% |
| Cc1cccc(S(=O)(=O)c2c(N)n(-c3ccccc3)c3nc4ccccc4nc23)c1 | -5% |
| Cc1c(Cl)c(C(F)(F)F)nn1CC(=O)NCc1ccco1 | 15% |
| COc1ccc(O)c(/C=N/NC(=S)Nc2cccc(S(=O)(=O)N(C)C)c2)c1 | -5% |
| COc1ccc(C(C(=O)NC2CCCCC2)N(Cc2ccco2)C(=O)c2snc(C(N)=O)c2N)cc1 (stereo not drawn) | ? |
| Cc1cc(C)c(NS(=O)(=O)c2cc(-c3cnc(C4CC4)o3)ccc2C)c(C)c1 | 1% |
| COc1ccc(NCC(=O)N/N=C/c2c(C)nn(Cc3ccccc3)c2Cl)cc1 | 9% |
| CCC(C)NC(=O)c1cnn(-c2ccc(Cl)cc2)c1C1CCN(C(=O)OC(C)(C)C)CC1 (stereo not drawn) | 2% |
| COC(=O)c1ccc(CSc2nc3c(c(=O)n2-c2ccccc2)SCC3)o1 | -25% |
| CCOc1cc(CNC2CCCC2)cc(Cl)c1OCc1ccccc1 | 11% |
| O=C1CC(N2C(=O)/C(=C/C=C/c3ccccc3)SC2=S)C(=O)N1c1ccccc1 (stereo not drawn) | 8% |
| N#CC1=C(N)Oc2cc(N)ccc2C1c1cccnc1 (stereo not drawn) | 5% |
| COc1ccc(Br)cc1CNC(=O)c1cc(=O)[nH]c2ccc(S(=O)(=O)N3CCCC3)cc12 | 7% |
| COC(=O)c1c(NC(=O)c2cnccn2)sc2c1CCC2 | -2% |

Quoted at random: 5 records from the list.
| Molecule | VDR inhibitor |
| --- | --- |
| N#CC1=C(N)Oc2cc(N)ccc2C1c1cccnc1 (stereo not drawn) | 5% |
| COc1ccc(Br)cc1CNC(=O)c1cc(=O)[nH]c2ccc(S(=O)(=O)N3CCCC3)cc12 | 7% |
| COc1ccc(NC(=O)CSCC(=O)NCc2ccco2)cc1 | -13% |
| CCOc1cc(CNC2CCCC2)cc(Cl)c1OCc1ccccc1 | 11% |
| Cc1cccc(S(=O)(=O)c2c(N)n(-c3ccccc3)c3nc4ccccc4nc23)c1 | -5% |
